Cruzain Triton – qHTS Assay for Promiscuous and Specific Inhibitors of Cruzain (with detergent); Cruzipain (Trypanosoma cruzi), P25779; purified cruzain, Z-FR-AMC fluorescence, 0.01% Triton; Potency, µM, without a hit: max response, negative = inhibition, hits mostly inhibitors; 200,000 compounds, 0.43% hits;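 also: plate controls were neutral wells for no effect and buffer without enzyme for full effect; nearly all actives have a fitted effect of over 40% in size; top concentration of the series not given in the record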
Target sequence (P25779 123-467 limits assumed): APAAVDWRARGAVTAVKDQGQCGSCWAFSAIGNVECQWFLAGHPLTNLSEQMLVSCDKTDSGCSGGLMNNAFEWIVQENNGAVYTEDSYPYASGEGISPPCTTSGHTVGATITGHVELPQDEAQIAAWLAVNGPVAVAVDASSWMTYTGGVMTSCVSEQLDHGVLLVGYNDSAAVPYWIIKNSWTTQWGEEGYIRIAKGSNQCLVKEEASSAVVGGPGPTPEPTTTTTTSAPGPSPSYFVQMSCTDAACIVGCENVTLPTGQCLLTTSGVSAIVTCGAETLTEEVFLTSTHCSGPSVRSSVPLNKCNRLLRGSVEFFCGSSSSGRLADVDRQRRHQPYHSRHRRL
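Z-FR-AMC hydrolysis (2 uM substrate) by cruzain (1.5 nM) monitored kinetically at ex 360/em 450 nm after 15 min room-temperature compound exposure; 0.01% Triton X-100, pH 5.5, 5 mM DTT.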
Lassa entry inh – qHTS for Inhibitors of binding or entry into cells for Lassa Virus; AID 540256, 2011; Potency, µM (top dose mostly 37.9 µM), for the others: top-dose activity change, negative = inhibition, hits mostly inhibitors; 300,000 compounds, 1.2% hits; Lassa virus pseudotype entry inhibition, cell reporter; control for the full effect not named in the record; active means well fitted inhibition curve with a large enough effect; inconclusive means small, poorly fitted or top-dose-only effect, or effect the other way; inactive means flat fitted curve, though single readings scatter; tested in HEK293 cells; also: % is scaled to controls: 0 for no effect and ±100 for the full control effect; nearly all actives have a fitted effect of over 50% in size; luciferase read-out
2A StopGo – High Throughput Screening for Foot and Mouth Disease Virus Antivirals; human cells with a luciferase reporter of 2A StopGo recoding; control for the full effect not named in the record; Potency, µM (series often up to 57.9 µM), without a hit: at the highest dose signal change, negative = less light; 410,000 compounds, 1.2% hits; active = well fitted falling curve with a large enough effect; inconclusive = small, poorly fitted or top-dose-only effect; inactive = no such curve, though single readings can be large or run the other way; tested in HEK293T cells; also: % is scaled to controls: 0 for no effect and ±100 for the full control effect; nearly all actives have a fitted effect of over 45% in size; luciferase light after 4 h
RE007 growth inh – qHTS Assay for Inhibitors of the HIV-1 protein Vpr; 360,000 compounds, 0.21% hits; S. pombe RE007 Vpr strain, BacTiter-Glo ATP luminescence, 24 h; control for the full effect not named in the record; AID 651644, 2012; Potency, µM (top dose mostly 92.2 µM), for inactives: at the highest dose activity change, negative = less growth; active = well fitted falling curve with a large enough effect; inconclusive = small, poorly fitted or top-dose-only effect; inactive = no such curve, though single readings can be large or run the other way;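 also: % is scaled to controls: 0 for no effect and ±100 for the full control effect; nearly all actives have a fitted effect of over 50% in size; the assay follows cell death caused by Vpr and the record does not say whether a fall means rescue or toxicity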
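Fission yeast strain RE007, carrying one chromosomally integrated HIV-1 vpr copy, was seeded at OD 0.01 in PMG+AL medium with 23 nL pinned compound. After 24 h at 30 °C and 99% humidity, viability was read by BacTiter-Glo luminescence.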
Cruzain inh noDet – qHTS Assay for Promiscuous and Specific Inhibitors of Cruzain (without detergent) | purified cruzain, Z-FR-AMC fluorescence, no detergent | Potency, µM, without a hit: max response, negative = inhibition, actives largely listed as inhibitors | 200,000 compounds, 2.3% hits | AID 1476, 2009;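 also: plate controls were enzyme without inhibitor for no effect and buffer without enzyme for full effect; nearly all actives have a fitted effect of over 40% in size; top concentration of the series not given in the record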
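Detergent-free condition (0.00005% Triton X-100) in acetate buffer pH 5.5 with DTT. 1.5 nM enzyme and compound were pre-mixed 15 min, then 2 uM Z-FR-AMC substrate added; reaction progress from fluorescence change between first and third reads (60 s).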
Marburg entry inh – qHTS for inhibitors of binding or entry into cells for Marburg Virus | Marburg virus pseudotyped entry inhibition, cell reporter; control for the full effect not named in the record; about a third of the inactives were read at about 46 µM | Potency, µM (doses to about 37.8 µM), inactives show at the highest dose activity change, negative = inhibition, most hits filed as inhibitors | 300,000 compounds, 1.8% hits; active = well fitted inhibition curve with a large enough effect; inconclusive = small, poorly fitted or top-dose-only effect, or effect the other way; inactive = flat fitted curve, though single readings scatter; tested in HEK293 cells; about a fifth of its hits are not listed in these tables; also: % is scaled to controls: 0 for no effect and ±100 for the full control effect; luciferase read-out
SARS PLpro yeast – qHTS of Yeast-based Assay for SARS-CoV PLP. S. cerevisiae expressing SARS-CoV PLpro, growth rescue; control for the full effect not named in the record. Potency, µM (highest dose often 32.9 µM), inactives show top-dose activity, positive = growth rescue. 330,000 compounds, 0.19% hits; active means well fitted rising curve with a large enough effect; inconclusive means small, poorly fitted or top-dose-only effect; inactive means no such curve, though single readings can be large or run the other way; also: 0% is about no effect; nearly all actives have a fitted effect of over 55% in size; growth read by luminescence after 48 h
Numbers without * were called inactive; ? = inconclusive; · = no result given; [ ] = dose if it differs, or a comment. Unless noted, calls follow the shape of the dose curve; as a rule, active = well fitted curve in the direction sought with a large enough effect; inconclusive = small, poorly fitted or top-dose-only effect, or another doubt; inactive = no such curve, though single readings can be large; an effect the other way counts as inactive or inconclusive. Potency is read from the fitted curve at half-maximal effect. An excerpt; rates above refer to the full screens.

Short keys – A = Cruzain Triton; B = Lassa entry inh; C = 2A StopGo; D = RE007 growth inh; E = Cruzain inh noDet; F = Marburg entry inh; G = SARS PLpro yeast
CC1CCC(C(C)C)C(=O)C1 (stereo unspecified)
  A: 3.9%; B: ·; C: ·; D: ·; E: -3%; F: ·; G: ·

CCC(=O)O[C@@]1(C(=O)SCF)[C@@H](C)C[C@H]2[C@@H]3C[C@@H](F)C4=CC(=O)C=C[C@@]4(C)[C@]3(F)[C@@H](O)C[C@]21C
  A: -2.2%; B: ·; C: ·; D: ·; E: -2%; F: ·; G: ·

CCCCC(=O)O[C@]1(C(=O)CO)[C@H](C)C[C@H]2[C@@H]3CCC4=CC(=O)C=C[C@]4(C)[C@@]3(F)[C@@H](O)C[C@@]21C
  A: -2.8%; B: ·; C: ·; D: ·; E: ?; F: ·; G: ·

COc1ccccc1OC[C@H](O)COC(N)=O
  A: 0.2%; B: ·; C: ·; D: ·; E: -9%; F: ?; G: ·

CC(C)[C@@H]1CC[C@@H](C)CC1=O
  A: ·; B: ·; C: -6%; D: ·; E: ·; F: ·; G: ·

CC(=O)Oc1ccc2c(c1)CC[C@@H]1[C@@H]2CC[C@]2(C)[C@@H](O)CC[C@@H]12
  A: ·; B: ·; C: -7%; D: ·; E: ·; F: ·; G: ·

NCCNC(=O)c1ccc(Cl)cn1
  A: ·; B: ·; C: -8%; D: ·; E: ·; F: ·; G: ·

CCCCNC(=O)[C@@H]1Cc2ccccc2N1C(=O)[C@H](N)CC
  A: -2.8%; B: ·; C: 7%; D: ·; E: 4%; F: ·; G: ·

COc1ccc(-c2cc(=O)c3c(O)c(OC)c(OC)c(OC)c3o2)cc1OC
  A: 0.4%; B: ·; C: 4%; D: ·; E: -2%; F: ·; G: ·

C#C[C@@]1(O)CCC2C3CCC4=CC(=O)CCC4C3CC[C@@]21CC (stereo partly specified)
  A: 5.0%; B: ·; C: -4%; D: ·; E: 3%; F: ·; G: ·

COc1ccc(CN2CCN(C(c3ccc(F)cc3)c3ccc(F)cc3)CC2)c(OC)c1OC
  A: ·; B: ·; C: -24%; D: 3%; E: ·; F: ·; G: ·

NNC(=O)CP(=O)(c1ccccc1)c1ccccc1
  A: ·; B: ·; C: 0%; D: 0%; E: ·; F: ·; G: ·

COC(=O)C1=CO[C@@H](OC2OC(CO)C(O)C(O)C2O)[C@@H]2[C@@H](C)[C@@H](O)C[C@H]12 (stereo partly specified)
  A: ·; B: ·; C: 0%; D: 14%; E: ·; F: ·; G: ·

COc1c(O)cc2c(c1O)[C@@H]1OC(CO)C(O)C(O)[C@H]1OC2=O (stereo partly specified)
  A: ·; B: ·; C: -16%; D: 6%; E: ·; F: ·; G: ·

COc1ccc(-n2[nH]c3c(cnc4ccccc43)c2=O)cc1
  A: ·; B: ·; C: 55%[activator]; D: 1%[18.4 µM]; E: ·; F: ·; G: ·

O=C(O)/C=C/c1ccc(O)cc1
  A: ·; B: ·; C: -5%; D: 68%; E: ·; F: ·; G: ·

CC(C)(CO)C(O)C(=O)NCCCO (stereo unspecified)
  A: ·; B: ·; C: ?; D: 6%[18.4 µM]; E: ·; F: ·; G: ·

Cc1ccccc1Cc1c(C)nc2c(-c3ccccc3)c(C)[nH]n2c1=O
  A: ·; B: ?; C: ?; D: ·; E: ·; F: ?; G: ·

COc1c(O)cc2c(c1O)[C@@H]1O[C@H](CO)[C@@H](O)[C@H](O)C1OC2=O (stereo partly specified)
  A: ·; B: ·; C: -20%; D: -6%; E: ·; F: ·; G: -1%

Rewritten in CSV form: entries from further up.
SMILES,Cruzain Triton,Lassa entry inh,2A StopGo,RE007 growth inh,Cruzain inh noDet,Marburg entry inh,SARS PLpro yeast
CCC(=O)O[C@@]1(C(=O)SCF)[C@@H](C)C[C@H]2[C@@H]3C[C@@H](F)C4=CC(=O)C=C[C@@]4(C)[C@]3(F)[C@@H](O)C[C@]21C,-2.2%,·,·,·,-2%,·,·
CCCCC(=O)O[C@]1(C(=O)CO)[C@H](C)C[C@H]2[C@@H]3CCC4=CC(=O)C=C[C@]4(C)[C@@]3(F)[C@@H](O)C[C@@]21C,-2.8%,·,·,·,?,·,·
COc1ccccc1OC[C@H](O)COC(N)=O,0.2%,·,·,·,-9%,?,·
CC(C)[C@@H]1CC[C@@H](C)CC1=O,·,·,-6%,·,·,·,·
CC(=O)Oc1ccc2c(c1)CC[C@@H]1[C@@H]2CC[C@]2(C)[C@@H](O)CC[C@@H]12,·,·,-7%,·,·,·,·
NCCNC(=O)c1ccc(Cl)cn1,·,·,-8%,·,·,·,·
CCCCNC(=O)[C@@H]1Cc2ccccc2N1C(=O)[C@H](N)CC,-2.8%,·,7%,·,4%,·,·
COc1ccc(-c2cc(=O)c3c(O)c(OC)c(OC)c(OC)c3o2)cc1OC,0.4%,·,4%,·,-2%,·,·
C#C[C@@]1(O)CCC2C3CCC4=CC(=O)CCC4C3CC[C@@]21CC (stereo partly specified),5.0%,·,-4%,·,3%,·,·
COc1ccc(CN2CCN(C(c3ccc(F)cc3)c3ccc(F)cc3)CC2)c(OC)c1OC,·,·,-24%,3%,·,·,·
NNC(=O)CP(=O)(c1ccccc1)c1ccccc1,·,·,0%,0%,·,·,·
COC(=O)C1=CO[C@@H](OC2OC(CO)C(O)C(O)C2O)[C@@H]2[C@@H](C)[C@@H](O)C[C@H]12 (stereo partly specified),·,·,0%,14%,·,·,·

Source: PubChem
